PINK1 expr mod = PINK1 expression modulation. PINK1 immunofluorescence, high-content cytometry, 24 h. Potency, µM (titrated, usually from 76.6 µM), for the others: at the highest dose activation (PINK1 increase), most hits filed as activators. hit rate 0.2% among 410,000; active = well fitted activation curve with a large enough effect; inconclusive = small, poorly fitted or top-dose-only effect; inactive = flat fitted curve, though single readings scatter; cell line not stated here;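 further: potency means the concentration at half of the fitted maximal effect; % of control where 0% means no effect; nearly all actives have a fitted effect of over 65% in size; a mitochondrial uncoupler was the plate control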
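A stable cell line was treated with compounds at 5 concentrations for 24 hours, with CCCP as control. PINK1 levels and mitochondrial localization were measured by immunofluorescence with mitochondrial, cell and nuclear markers after fixation, read by laser-scanning cytometry.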
D2 PAM = potentiates the human D2 dopamine receptor allosterically; DiscoveRx D2 beta-arrestin cells, luminescence, 90 min; 100% = 57 uM dopamine signal; potentiation, % (test concentration not listed); hit rate 0.23% among 360,000; AID 624464; active = potentiation of 50% or more; inconclusive = 30% to 50%; inactive = 30% or less;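 further: compound concentration not given in the record; tested on top of an EC20 dose of dopamine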
Target sequence (P14416 whole entry, looked up): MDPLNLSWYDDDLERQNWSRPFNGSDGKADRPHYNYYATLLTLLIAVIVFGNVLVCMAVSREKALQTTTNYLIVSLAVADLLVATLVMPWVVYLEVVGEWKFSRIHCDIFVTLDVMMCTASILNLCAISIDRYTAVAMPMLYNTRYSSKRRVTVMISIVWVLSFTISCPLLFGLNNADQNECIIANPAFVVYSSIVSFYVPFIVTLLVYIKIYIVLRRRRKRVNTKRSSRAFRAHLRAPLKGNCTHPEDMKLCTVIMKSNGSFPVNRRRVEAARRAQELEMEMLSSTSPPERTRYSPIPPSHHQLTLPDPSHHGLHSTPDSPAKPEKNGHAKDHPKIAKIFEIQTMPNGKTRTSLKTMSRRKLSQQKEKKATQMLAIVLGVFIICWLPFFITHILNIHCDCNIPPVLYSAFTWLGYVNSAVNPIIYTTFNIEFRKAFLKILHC
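PathHunter beta-arrestin assay in DiscoveRx D2 cells. Compounds were added with an EC20 of dopamine (50 nM final) for 90 min at 37 deg C. Luminescence was read 1 h after detection reagent, with 57 uM dopamine as the EC100 control.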
Six1-Eya2 inh = Six1/Eya2 interaction inhibition. AlphaScreen GST-Six1/His-Eya2 binding, biochemical; hits give low values; control for the full effect not named in the record. hit rate 0.56% among 360,000. Q15475+O00167. activity change, % (concentration not given with the values). AID 651725; in the data active = activity change below about -65%; inconclusive = about -30% to -65%; inactive = above about -30%; further: on the % scale 0 is the no-effect control and ±100 the full control effect
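Compounds are tested against tagged Six1 and Eya2 proteins bridged by glutathione donor and nickel acceptor beads; after a one-hour incubation at 37 °C without light, AlphaScreen emission is recorded.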
D2 agonist = activates the human D2 dopamine receptor; hit rate 0.084% among 360,000; activation, % (concentration not given with the values); DiscoveRx PathHunter D2 beta-arrestin, luminescence, 90 min; 100% = 57 uM dopamine signal; P14416; in the data active = activation above about 40%; inconclusive = about 15% to 40%; inactive = below about 15%; further: compound concentration not given in the record; the text of the record calls up to 30% inactive
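DiscoveRx PathHunter D2 beta-arrestin cells (2,100/well) attached overnight, then compound-stimulated 90 min at 37 C in HBSS/10 mM HEPES/0.1% Tween-20 buffer; beta-galactosidase complementation read by luminescence after 1 h at ambient temperature. Dopamine 57 uM final (EC100) as control.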
CtBP-E1A blk = blocks the CtBP interaction with E1A | AlphaScreen GST-E1A/His-CtBP binding, 1536-well; hits give low values; control for the full effect not named in the record | activity change, % (test concentration not listed) | hit rate 0.49% among 340,000; in the data active means activity change below about -65%; inconclusive means about -30% to -65%; inactive means above about -30%; further: on the % scale 0 is the no-effect control and ±100 the full control effect; compound concentration not given in the record
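In 5 uL wells, 23 nL compound meets equimolar GST-E1A and His-CtBP (5X stock 125 nM each) for 2 h, 37 °C. Beads (5X, 50 ug/mL) then 1 h, 37 °C, dark.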
TRPML1 agonist = activates the human TRPML1 channel; Q9GZU1; TRPML1-expressing cells, Ca2+ dye fluorescence, FDSS; host cell line not named in the record; reference of the full effect not given here; activation, % (no concentration beside the values); hit rate 0.12% among 410,000; AID 624414; in the data active = activation above about 50%; inconclusive = about 30% to 50%; inactive = below about 30%; further: 0% is about no effect; the text of the record puts the active cut at 80%
Target sequence (Q9GZU1 whole entry, looked up): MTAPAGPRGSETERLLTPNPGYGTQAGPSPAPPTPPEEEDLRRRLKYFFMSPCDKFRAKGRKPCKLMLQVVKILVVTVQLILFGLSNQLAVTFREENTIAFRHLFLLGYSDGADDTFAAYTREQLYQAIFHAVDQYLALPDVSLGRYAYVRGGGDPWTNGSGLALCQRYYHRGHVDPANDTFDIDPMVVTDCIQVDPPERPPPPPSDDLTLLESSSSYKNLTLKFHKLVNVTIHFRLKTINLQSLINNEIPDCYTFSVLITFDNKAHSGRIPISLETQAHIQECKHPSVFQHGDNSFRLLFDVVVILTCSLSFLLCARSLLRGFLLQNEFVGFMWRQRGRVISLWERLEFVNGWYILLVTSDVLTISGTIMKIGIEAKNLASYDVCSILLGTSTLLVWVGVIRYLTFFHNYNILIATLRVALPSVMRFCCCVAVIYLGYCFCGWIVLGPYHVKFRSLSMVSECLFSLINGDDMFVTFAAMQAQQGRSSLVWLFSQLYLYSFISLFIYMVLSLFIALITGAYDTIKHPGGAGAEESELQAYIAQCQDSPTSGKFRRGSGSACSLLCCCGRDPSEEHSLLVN
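Agonist activity was taken from a 110 s kinetic Ca2+ dye read on the FDSS after pinning compounds onto TRPML1-DL cells. The cells were seeded at 1,500/well with Tet inducer, incubated about 16 h, then dye-loaded at room temperature.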
The depositor's hits bear a star; ? = inconclusive; . = no result given; [ ] = remark or other dose. No enrichment for hits; any-hit rate near 1.3%.

SMILES | PINK1 expr mod | D2 PAM | Six1-Eya2 inh | D2 agonist | CtBP-E1A blk | TRPML1 agonist
CCOC(=O)N1CCN(Cc2cc(=O)oc3cc4c(cc23)CCC4)CC1 | -1.0% | -8.0 | 3.3 | -3.6 | -3.2 | 1.9
COc1cccc(CNC(=O)c2ccc(C)c(NC3=NC4CS(=O)(=O)CC4S3)c2)c1 (stereo unspecified) | -0.3% | -4.5 | 11.6 | -3.9 | -3.4 | -0.5
CCOc1cc(/C=C(\C#N)c2nc3ccccc3[nH]2)ccc1OC(C)C(=O)O (stereo unspecified) | 3.8% | -7.1 | -29.0 | -3.4 | . | 1.0
Cn1c(SCC(=O)N/N=C/c2ccc(O)c(O)c2)nc2ccccc21 | 4.7% | -3.7 | -3.0 | -2.3 | -7.3 | 0.6
COc1ccc(Cn2nnc3c(=O)[nH]c(C(=O)NCCc4ccc(F)cc4)nc32)cc1OC | 2.5% | -0.4 | -5.4 | -2.7 | -8.7 | 0.5
O=c1oc(/C=C/c2ccc([N+](=O)[O-])s2)nc2ccccc12 | 39.8µM* | 7.3 | -0.6 | 14.9 | . | .
COCCCn1c(=O)c2ccccc2n(CC(=O)Nc2ccc3c(c2)OCCO3)c1=O | -0.7% | 2.4 | 6.7 | 1.7 | -1.2 | 0.4
COC(=O)Nc1ccc(NC(C)=O)cc1 | 1.1% | 4.0 | 0.7 | 0.5 | 7.1 | -0.1
O=C(CSc1cn(CC(=O)N2CCCC2)c2ccccc12)NCC1CCCO1 (stereo unspecified) | 3.6% | 12.1 | 9.0 | 4.7 | 18.0 | 0.3
Cc1ccc(C(=O)c2ccc([N+](=O)[O-])cc2)c(C)c1 | 3.1% | 5.2 | -16.3 | 2.9 | ? | 1.9
Cc1nn(CCCC(=O)NCc2ccccc2)c(C)c1[N+](=O)[O-] | 4.2% | -10.6 | -3.4 | -2.7 | 2.3 | -0.2
Cc1ccccc1C(=O)NNc1ccc([N+](=O)[O-])cc1 | 0.0%[38.3 µM] | 0.7 | 3.7 | 1.3 | 12.1 | 0.3
COc1ccc(NC(=O)C2=Cc3cccc(OC)c3OC2)cc1 | 3.6% | -2.7 | -6.4 | 1.6 | 1.2 | -0.6
CC(=O)Nc1cncc(-c2ccccc2CO)n1 | 1.2% | -0.6 | 0.6 | 3.1 | 6.7 | -0.6
CC1CCc2sc3ncn4nc(C(=O)NCc5ccco5)nc4c3c2C1 (stereo unspecified) | 8.4% | -13.3 | 5.0 | -2.4 | 4.3 | -0.5
O=C(O)/C=C/C(=O)Nc1cccnc1 | 1.5% | -5.5 | -19.8 | -0.5 | -2.9 | -0.5
Cc1ccc(C2(C)NC(=O)N(CC(=O)Nc3cc(C)on3)C2=O)cc1 (stereo unspecified) | 18.0%[38.3 µM] | 9.2 | 4.3 | -1.0 | 15.6 | 1.3
CCOC(=O)C1C(=O)CC(C)(O)C(C(=O)OCC)C1c1ccc(NC(C)=O)cc1 (stereo unspecified) | 6.5% | -1.4 | -1.1 | -2.4 | 4.2 | -0.5
Cc1ccc(-n2c(CC#N)n[nH]c2=S)c(C)c1 | -0.8% | -12.9 | 4.7 | 3.1 | 4.7 | -0.3
CSc1ccc(CN2CCC2(C)C(=O)NCc2ccccc2Br)cc1 (stereo unspecified) | -0.3% | -5.9 | -14.4 | -6.1 | -9.0 | -0.5
O=C(CCCSc1nc2ccccc2[nH]1)Nc1nnc(C2CC2)s1 | -0.7% | 0.2 | 0.7 | 5.5 | -21.6 | 1.2
Cc1ccc(OCC(=O)Nc2ccc(N3CCN(C(=O)c4ccco4)CC3)cc2)c(C)c1 | 1.5% | -0.7 | -27.6 | 3.3 | -28.7 | -0.6
COc1ccc(C(=O)CCC(=O)O)c(C)c1 | 5.6%[38.3 µM] | -4.0 | 3.5 | -3.9 | 3.2 | -0.5
O=C(COC(=O)C(CO)NS(=O)(=O)c1ccc(Br)cc1)Nc1ccc2c(c1)OCCO2 (stereo unspecified) | -1.0% | -5.0 | -2.6 | -5.6 | 2.2 | -0.4
C[C@H](NC(=O)c1nc[nH]c1C(=O)N(C)Cc1ccccc1)C(=O)OC(C)(C)C | -1.3% | -4.4 | 4.1 | -1.0 | 3.8 | -0.5
Cc1ccc(-n2c(C)cc(/C=C3/SC(=O)N(CC(=O)N4CCOCC4)C3=O)c2C)nc1 | 10.4% | -3.6 | -0.1 | -10.3 | 6.0 | 1.1
CC1(C(=O)NCCC#N)CCN1C(=O)c1ccccc1CCc1ccccc1 (stereo unspecified) | 0.6% | -11.8 | -0.6 | -3.3 | 4.7 | -0.4
COc1ccc(Br)cc1-c1noc(-c2ccccc2F)n1 | 17.4% | -1.9 | 9.2 | 3.5 | 2.2 | -0.4
CCOC(=O)c1cccc(NC(=O)C2CCCN(S(=O)(=O)c3c(C)n[nH]c3C)C2)c1 (stereo unspecified) | 0.6% | -33.7 | -1.7 | -0.2 | -1.5 | 0.7
COc1ccc(CC/C(=N\O)C2(O)CCCCC2)cc1 | 0.7% | 13.7 | 5.4 | 1.4 | 5.7 | 0.0
COc1ccccc1CNC(=O)CN(c1ccc(C)cc1)S(=O)(=O)c1c(C)nn(C)c1C | 6.5%[38.3 µM] | -5.9 | -0.7 | -1.4 | -1.5 | -0.6
Nc1ncnc2c1ncn2[C@@H]1O[C@H](C(=O)N[C@@H](CO)c2ccccc2)[C@@H](O)[C@H]1O | 0.6% | -3.6 | 12.9 | -1.1 | -7.6 | 1.8
CCc1c(C)sc(NC(=S)Nc2cccnc2)c1C(=O)OC | 1.2% | -9.5 | -5.4 | -2.5 | -4.1 | -1.8
Cc1ccc2c(c1)S/C(=C/c1ccc[n+](C)c1)N2CCO | 4.2% | -14.6 | -2.2 | -5.0 | -8.0 | 0.9
CN(C)S(=O)(=O)Nc1ccc(Cc2ccncc2)cc1 | -0.8% | -4.1 | 2.0 | -2.3 | 1.5 | -0.8
Cc1ccc(N2CC(C(=O)N3CCC4(CC3)CC(=O)c3ccccc3O4)CC2=O)cc1 (stereo unspecified) | -0.2% | 0.6 | 2.2 | -6.9 | -1.4 | 1.3
NC(=O)CSc1nc2sc(-c3ccccc3)cc2c(=O)n1N | ? | -5.6 | -5.4 | 2.4 | 17.1 | 0.3
CCNC(=S)N/N=C(\C)c1ccc(Cl)s1 | 1.6% | -28.2 | -18.9 | -5.3 | -9.6 | 3.9
CCCc1nnc(SCC(=O)N2CCOCC2)n1C | 0.9% | -3.9 | 16.7 | -0.4 | -1.1 | 0.0
COc1ccc2c(c1)C(NS(=O)(=O)OCC(Cl)(Cl)Cl)CCC2 (stereo unspecified) | 8.2% | -6.3 | -6.3 | -1.0 | -1.2 | -0.1
Cn1nccc1C(=O)NC1CCN(Cc2ccccc2)CC1 | -0.1% | -24.7 | 2.6 | 3.4 | 7.0 | 0.8
O=C(O)CSc1ncnc2c1sc1nc(-c3ccccc3)c3c(c12)CCC3 | 1.3% | -9.0 | -13.9 | -2.9 | . | 0.8
COc1cc(/C=N/NC(=O)COc2ccc(Cl)cc2)ccc1OS(=O)(=O)c1ccc(C)cc1 | 7.0% | -4.4 | -4.4 | -1.2 | -5.4 | 0.7
CCOC(=O)CNC(=O)N1CCCC(CCC(=O)NCc2ccc(F)c(F)c2)C1 (stereo unspecified) | -0.9% | -5.4 | 8.5 | -2.2 | 9.9 | 0.2
C1CCN2C[C@@H]3C[C@@H](CN4CCCC[C@@H]34)[C@H]2C1 | 0.0% | -2.3 | 2.1 | 2.4 | 2.1 | 0.2
COc1ccccc1NC(=S)NCCc1ccc(OC)c(OC)c1 | 2.0% | -5.0 | 1.4 | 2.0 | 5.3 | -0.2
COc1ccc(C(=O)Nc2ccc(Br)cn2)cc1S(=O)(=O)N1CCOCC1 | 1.3% | 1.7 | -12.4 | 1.3 | -13.4 | 4.2
CCCOc1ccc(NC(=O)CC2Nc3ccccc3NC2=O)cc1 (stereo unspecified) | 12.3% | -5.2 | 2.3 | -1.6 | 4.8 | -0.4
COC(=O)c1ccccc1NC(=O)C1CC(=O)N(C2CCCCC2)C1 (stereo unspecified) | 6.9%[38.3 µM] | -9.3 | -1.9 | -0.2 | 2.4 | 0.5
Cc1cc(C)n2nc(-c3ccc(Cl)cc3)cc2n1 | 0.2% | -6.7 | 7.1 | -3.0 | . | 1.3
O=C(NCc1ccco1)C1(S(=O)(=O)c2ccccc2)CC=CC1 | -0.5% | -7.5 | 5.2 | -0.3 | 2.6 | -0.6
O=C(CN1CCSCC1)N/N=C/c1cccc(Cl)c1 | 0.1% | -11.6 | -2.9 | 0.8 | . | -0.1
COc1ccc(C2c3cc4c(cc3OC(N3CCOCC3)C2C)OCO4)c(OC)c1 (stereo unspecified) | -4.4% | -15.3 | ? | -3.5 | -0.3 | 1.7
C=CCn1c2ccccc2c2nnc(SCc3ccc4nonc4c3)nc21 | ? | -0.6 | 2.4 | -0.2 | 1.2 | -0.4
CC(=O)C1=C(O)C(=O)N(c2cc(C(C)(C)C)on2)C1c1ccc(Br)cc1 (stereo unspecified) | -0.5%[38.3 µM] | -7.8 | 20.1 | 0.0 | 36.8 | 0.3
Cc1ccn(C(=O)c2ccc(NC(=O)CC(C)C)cc2)n1 | -0.3% | -4.0 | -0.3 | -0.4 | -1.2 | -0.2
S=C(NCc1ccc(Cl)cc1)NC1CCCCC1 | 0.1% | -11.2 | 0.8 | 1.3 | . | 0.8
O=C(N/N=C/c1cccnc1)c1ccc(S(=O)(=O)N2CCCCCC2)cc1 | 1.3% | -1.4 | 4.4 | -3.0 | -6.6 | 0.2
COCCN1C[C@@H](CO)O[C@@H](n2cnc3c(NCc4ccncc4)ncnc32)C1 | 0.5% | 2.0 | 24.2 | -4.0 | 24.0 | -0.6
CCN(CC)C(=O)C1CCN(S(=O)(=O)c2c(C)noc2/C=C/c2cccc(C)c2)CC1 | -2.8% | -6.4 | -5.3 | -5.4 | -5.3 | 2.0

Grouped by structure: the entries above with a tert-butyl group (two)
SMILES | PINK1 expr mod | D2 PAM | Six1-Eya2 inh | D2 agonist | CtBP-E1A blk | TRPML1 agonist
C[C@H](NC(=O)c1nc[nH]c1C(=O)N(C)Cc1ccccc1)C(=O)OC(C)(C)C | -1.3% | -4.4 | 4.1 | -1.0 | 3.8 | -0.5
CC(=O)C1=C(O)C(=O)N(c2cc(C(C)(C)C)on2)C1c1ccc(Br)cc1 (stereo unspecified) | -0.5%[38.3 µM] | -7.8 | 20.1 | 0.0 | 36.8 | 0.3

(more compounds)
SMILES | PINK1 expr mod | D2 PAM | Six1-Eya2 inh | D2 agonist | CtBP-E1A blk | TRPML1 agonist
O=[N+]([O-])c1cc(S(=O)(=O)Nc2cccc(C(F)(F)F)c2)ccc1-n1nnc2ccccc21 | 22.4µM* | -11.0 | -4.2 | -0.5 | -0.7 | -0.1
CCOc1ccc(-c2nn[nH]n2)cc1OCC | -1.6% | -9.0 | 4.9 | 2.7 | 2.5 | 0.1
CCCCOc1ccc(C(=O)N(C)CC(=O)Nc2ccc(C)cc2)cc1 | -0.8% | -11.8 | -6.0 | -1.9 | 1.0 | 2.0
C#CCSc1nc(-c2ccccc2)cc(C(F)(F)F)c1C#N | 4.1% | 2.8 | 19.9 | -2.9 | 23.0 | 4.3
O=C(c1cc([N+](=O)[O-])ccc1Cl)N1c2ccccc2Sc2ccccc21 | 0.7% | -0.8 | ? | 0.2 | -10.2 | 1.3
COC(=O)c1sc(S(=O)(=O)N2CCC(C)CC2)c(C(=O)OC)c1C | -2.1% | -15.9 | 7.9 | -3.8 | 9.2 | -0.5

Screening results from PubChem.
